Source: PubChem (National Center for Advancing Translational Sciences (NCATS))
2A firefly = FMDV 2A StopGo reporter, firefly signal; 120,000 compounds, 0.23% hits; HEK cells with a luciferase reporter of 2A StopGo recoding; AID 1745856; Potency, µM (highest dose often 57.5 µM), without a hit: at the highest dose signal change, negative = less light; active = well fitted falling curve with a large enough effect; inconclusive = small, poorly fitted or top-dose-only effect; inactive = no such curve, though single readings can be large or run the other way; also: nearly all actives have a fitted effect of over 60% in size; overnight with compound
StopGo RLuc = lowers the Renilla signal of an FMDV 2A StopGo reporter | 120,000 compounds, 0.32% hits | AID 1745857 | HEK cells with a luciferase reporter of 2A StopGo recoding | Potency, µM (highest dose often 57.5 µM), for inactives: at the highest dose signal change, negative = less light; active means well fitted falling curve with a large enough effect; inconclusive means small, poorly fitted or top-dose-only effect; inactive means no such curve, though single readings can be large or run the other way; also: nearly all actives have a fitted effect of over 55% in size; overnight with compound
The depositor's hits bear a star; ? = inconclusive; & = joins results of further samples; [ ] = another dose, or the depositor's remark. % is scaled to controls: 0 for no effect and ±100 for the full control effect; potency is read from the fitted curve at half-maximal effect.

Sample of the layout (15 entries):
SMILES | 2A firefly | StopGo RLuc
CCOc1ccccc1NC(=O)CSc1ccc2nnc(CCNS(=O)(=O)c3ccccc3)n2n1 | -17.1% | -6.2%
CCC1c2ccsc2CCN1C(=O)C1CCN(S(=O)(=O)c2ccc(C)c(C)c2)CC1 (stereo not given) | ? | -15.2%
Cc1nn(-c2ccc(Cl)nn2)c2c1C(c1ccc(O)cc1)CC(=O)N2 (stereo not given) | 18.2% | 11.6%
Cc1cc(Br)ccc1NC(=O)c1cc2c(=O)n(C)c3cc(Cl)ccc3c2s1 | -12.0% | -7.6%
Cc1ccccc1C(=O)Nc1c(C)nc(Nc2ccccc2)nc1Nc1ccccc1 | -8.5% | 8.3%
CCOC(=O)c1c(NC(=O)C2CCCO2)sc(C(C)=O)c1C (stereo not given) | 9.2% | 4.5%
O=C(NC1CCCCC1)c1ccc(CSc2nc3cccnc3n2Cc2cccc(F)c2)cc1 | -30.7% | 16.8%
O=C(Cn1cnc(S(=O)(=O)N2CCOCC2)c1)Nc1cccc(-c2ccno2)c1 | 23.7% | -0.4%
Cc1ccnc(SC(C(=O)O)c2ccccc2)n1 (stereo not given) | 15.7% | 11.0%
COc1ccccc1CCN1CNc2c(c(=O)[nH]c(=O)n2-c2cccc(Cl)c2C)C1 | 8.0% | 0.9%
Cc1nc2nc(SCC(=O)NC3CCC(C)CC3)nn2c(C)c1Cc1ccccc1 (stereo not given) | -17.0% | 5.4%
CCCCN(CC)CCCNC(=O)Cn1ncc2c3ccccc3n(C)c2c1=O | 1.8% | -12.2%
C=CCc1cc(/C=C2/NC(=O)NC2=O)cc(OCC)c1OCc1ccc(F)cc1 | -12.0% | -4.1%
Cc1nc2ccc(C(=O)Oc3cccc4cccnc34)cc2nc1C | 155.7%[activator] | 5.0%
COc1cccc(NC(=O)N2CCC(n3c(C)nc4cccnc43)CC2)c1 | -3.6% | -12.9%

The whole of this part, previewed entries included:
SMILES | 2A firefly | StopGo RLuc
CCOc1ccccc1NC(=O)CSc1ccc2nnc(CCNS(=O)(=O)c3ccccc3)n2n1 | -17.1% | -6.2%
CCC1c2ccsc2CCN1C(=O)C1CCN(S(=O)(=O)c2ccc(C)c(C)c2)CC1 (stereo not given) | ? | -15.2%
Cc1nn(-c2ccc(Cl)nn2)c2c1C(c1ccc(O)cc1)CC(=O)N2 (stereo not given) | 18.2% | 11.6%
Cc1cc(Br)ccc1NC(=O)c1cc2c(=O)n(C)c3cc(Cl)ccc3c2s1 | -12.0% | -7.6%
Cc1ccccc1C(=O)Nc1c(C)nc(Nc2ccccc2)nc1Nc1ccccc1 | -8.5% | 8.3%
CCOC(=O)c1c(NC(=O)C2CCCO2)sc(C(C)=O)c1C (stereo not given) | 9.2% | 4.5%
O=C(NC1CCCCC1)c1ccc(CSc2nc3cccnc3n2Cc2cccc(F)c2)cc1 | -30.7% | 16.8%
O=C(Cn1cnc(S(=O)(=O)N2CCOCC2)c1)Nc1cccc(-c2ccno2)c1 | 23.7% | -0.4%
Cc1ccnc(SC(C(=O)O)c2ccccc2)n1 (stereo not given) | 15.7% | 11.0%
COc1ccccc1CCN1CNc2c(c(=O)[nH]c(=O)n2-c2cccc(Cl)c2C)C1 | 8.0% | 0.9%
Cc1nc2nc(SCC(=O)NC3CCC(C)CC3)nn2c(C)c1Cc1ccccc1 (stereo not given) | -17.0% | 5.4%
CCCCN(CC)CCCNC(=O)Cn1ncc2c3ccccc3n(C)c2c1=O | 1.8% | -12.2%
C=CCc1cc(/C=C2/NC(=O)NC2=O)cc(OCC)c1OCc1ccc(F)cc1 | -12.0% | -4.1%
Cc1nc2ccc(C(=O)Oc3cccc4cccnc34)cc2nc1C | 155.7%[activator] | 5.0%
COc1cccc(NC(=O)N2CCC(n3c(C)nc4cccnc43)CC2)c1 | -3.6% | -12.9%
COc1cc(OC)c2c(C)c(CC(=O)N3CCN(CCc4ccccn4)CC3)c(=O)oc2c1 | -3.0% | -7.8%
CS(=O)(=O)N1CCC(NC(=O)c2ccccc2C(=O)c2ccccc2)CC1 | -9.6% | -5.7%
Cc1ccc(NC(=O)CCC(=O)N2Cc3ccccc3Oc3ncccc32)cc1F | -5.9% | -6.1%
CCCCc1nn(-c2cc(Cl)ccc2OC)c2c1C(=O)CCC2 | 6.1% | 15.5%
CCOc1cc2sc(N3CCC(C(=O)Nc4cc(C)cc(C)c4)CC3)nc2cc1Br | 22.5% | 1.8%
Cc1cccc(C(=O)NC2(C(F)(F)F)N=C(c3ccccc3)N(Cc3ccco3)C2=O)c1 (stereo not given) | -6.0% | -9.0%
COc1ccccc1-c1cc(C(=O)N2CCCCC2C)no1 (stereo not given) | 17.8% | 66.8%[activator]
CC(CCc1ccccc1)NC(=O)C1CCN(S(=O)(=O)c2cccc(Cl)c2Cl)CC1 (stereo not given) | -3.3% | 0.7%
Cc1ccc(C(C)C)c(OCC(=O)Nc2ccc3c(c2)nc(CCn2nc(C)cc2C)n3C)c1 | ? | ?
COc1cccc(-n2c(SCC(N)=O)nc3c(c2=O)C2(CCCC2)Cc2ccccc2-3)c1 | -9.5% | -17.4%
(next part)
SMILES | 2A firefly | StopGo RLuc
CCCNC(=O)CSCc1cccs1 | 26.5% | 2.1%
CCn1c(=O)n(CC(=O)NCC(=O)Nc2c(C)cccc2C)c2ccccc21 | 2.5% | 0.9%
CCOc1ccc(NC(=O)Cc2coc3cc(C)c(C(C)C)cc23)cc1S(=O)(=O)N(C)C | ? | 13.8%
O=C(CCCn1c(=O)c2cccn2c2ccccc21)NCc1ccccc1Br | -15.7% | 35.4%[activator]
CCCn1c(C)cc(C(=O)COc2ncnc3ccccc23)c1C | 94.3%[activator] | -21.1%
Cc1cccc(OCc2nnc(-c3ccccc3)o2)c1 | 58.4%[activator] | 0.0%
COc1cccc(CNC(=O)CCn2nc(C)c3c(C)n(-c4ccccc4)nc3c2=O)c1 | -3.2% | 14.9%
O=c1c2ccccc2nc(N2CCN(c3cccc(Cl)c3)CC2)n1-c1ccccc1 | 15.8% | -0.4%
CCc1ccc(CNCCc2c[nH]c3ccccc23)cc1 | 6.0% | -7.3%
CCCC(C)N(C)CC(=O)NC1(C#N)CCCCCC1 (stereo not given) | 0.2% | 7.1%
COc1cccc(C(=O)Nc2ccc(-c3nc4ccccc4s3)cc2Cl)c1 | 85.0%[activator] | -4.1%
COc1ccc(OC)c(-c2cc(C(=O)NC(C)c3ccccc3)no2)c1 (stereo not given) | -1.0% | -7.3%
CC(NC(=O)C1CCCC(C(F)(F)F)C1)c1cccc(C(F)(F)F)c1 (stereo not given) | 2.4% | -1.5%
O=C(CC1C=CCC1)Nc1ccccc1Sc1ccccc1 (stereo not given) | 13.8% | 61.7%[activator]
Cc1ccc(SCc2nc(-c3ccc(C(=O)NCCCN4CCOCC4)cc3)oc2C)cc1 | ? | ?
CCN(C(=O)CSc1nc2ccccc2n1Cc1ccccc1C#N)c1ccccc1 | -3.7% | 7.6%
Cc1ccc(-c2cc(C(=O)NC3CC3)c3ccccc3n2)o1 | 31.0%[activator] | -1.1%
CCOC(=O)N1CCN(C(=O)CN(c2cc(C)ccc2OC)S(=O)(=O)c2ccc(C)cc2)CC1 | -3.2%&-12.7% | 132.1%&65.7%[activator]
Cc1ccc(NS(=O)(=O)c2ccc3[nH]c4c(c3c2)CCCC4)c(C)c1 | -7.2% | 148.2%[activator]
CC(C)(C)c1ccc(C(=O)N2CCN(CCc3ccccn3)CC2)cc1 | -11.3% | -4.5%
CC(C)(C)C1CCc2nc(NC(=O)COc3ccc(F)cc3)sc2C1 (stereo not given) | 16.1% | -2.6%
CCc1ccc(CNC(=O)C2CCN(c3nnc(-n4c(C)ccc4C)s3)CC2)cc1 | 0.0% | -0.4%
COc1ccccc1N1CCN(C(=O)c2cc3c(=O)oc4ccccc4c3s2)CC1 | -5.9% | -9.2%
CC(=O)c1cccc(NC(=O)CSc2nnc3ccc(-c4ccc5c(c4)OCO5)nn23)c1 | 11.0% | 11.1%
CC(N)c1ccc(C(=O)O)o1 (stereo not given) | 0.0% | 13.7%
(continued)
SMILES | 2A firefly | StopGo RLuc
COc1ccc(N2CC(NC(=O)c3cccs3)CC2=O)cc1OC (stereo not given) | 1.8%&12.1% | -4.7%&5.3%
COc1cccc(CN(C)CC(=O)NC2CCCCCC2)c1OC | 0.0% | 28.6%
CCC(NC(=O)Cc1ccc2c(c1)CCC2)c1ccc(Br)cc1 (stereo not given) | -0.4% | 20.9%
CCN(CC)S(=O)(=O)c1ccc(NC(=O)CCc2c(C)nc3cc(-c4ccc(Cl)cc4)nn3c2C)cc1 | ? | -13.3%
COc1ccc(C(=O)Oc2ccccc2)cc1Br | 1.4% | 5.3%
Cc1ccc(-c2nc(SCc3ncc(-c4ccc(Cl)cc4)o3)n[nH]2)cc1 | 10.6% | 3.4%
CCOC(=O)C1=C(C)N(C2CCCCC2)C(=O)C1(NC(=O)C1CC1)C(F)(F)F (stereo not given) | -8.6% | 8.8%
O=C(COC(=O)c1cc2ccccc2cc1O)Nc1ccc(Cl)cc1C(F)(F)F | 6.8% | -4.3%
CCC(C)[C@@H](NC(=O)Nc1ccc(OC)c(Cl)c1)C(=O)OC (stereo not given in full) | 13.1% | -4.2%
Cc1ccc(-c2nnn(C(C)C(=O)Nc3ccc(C#N)cc3)n2)cc1 (stereo not given) | 13.2% | 37.9%[activator]
O=C(/C=C/c1ccccc1)N1CCC(c2nc3ccccc3o2)CC1 | 22.0% | 16.8%
Cc1cc(NC(=O)CCn2cnc3c2c(=O)n(C)c(=O)n3C)ccc1Br | 11.0% | 6.3%
Cc1ccc(N2CC(C(=O)Nc3nnc(C4CC4)s3)CC2=O)cc1F (stereo not given) | -2.3% | 19.8%
COc1cccc(CNC(=O)CCCn2c(=O)c3cccn3c3cccnc32)c1OC | -3.8% | -3.7%
COc1cc(C)ccc1OCc1nnc(SC(C)C(=O)Nc2ccc3c(c2)OCO3)n1C (stereo not given) | -1.1% | 14.1%
NNc1ccc(S(=O)(=O)Nc2ccc(Cl)cc2)cc1[N+](=O)[O-] | 3.0% | 283.4%[activator]
CC(=O)c1cccc(OCc2coc(-c3cccc(Cl)c3)n2)c1 | 115.6%[activator] | -27.4%
O=C(Nc1ccc(S(=O)(=O)NC2CCCCC2)cc1)C1c2ccccc2Oc2ccccc21 | 18.8% | 189.0%[activator]
CCCC(CCC)(C(=O)OCC)C(=O)OCC | -11.2%[11.5 µM] | -8.3%
CC1CCCCN1CCC(=O)O (stereo not given) | -1.8% | -6.0%
COc1ccc(CN2CCN(S(=O)(=O)c3ccccc3)CC2)c(OC)c1 | -2.7% | 17.5%
Cc1cc(NC(=O)C(C)Sc2nc(Nc3ccccc3)c3ccccc3n2)no1 (stereo not given) | ? | ?
C[C@H](O)[C@@H]1CN2CCc3ccc(N4CCOCC4)cc3[C@@H]2C[C@@H]1N(C)C(=S)NCCc1ccccc1 | 0.0% | 0.8%
COc1cccc(-c2nc(SCc3cc(=O)n4c5c(sc4n3)CCCC5)n[nH]2)c1 | -6.8% | 13.9%
Cc1ccccc1Nc1c(-c2ccc(Br)cc2O)nc2sccn12 | 0.0% | -3.0%
The results go on.
SMILES | 2A firefly | StopGo RLuc
CCCCCn1nc(C(=O)NC2(C)CCS(=O)(=O)C2)c2ccccc2c1=O (stereo not given) | -0.7% | 2.6%
Cc1nc2cc(NC(=O)c3cc(S(=O)(=O)N(C)c4ccccc4)ccc3Cl)ccc2o1 | -24.4% | -12.6%
CCc1cc2c(C)cc(=O)oc2cc1OCC(=O)c1ccc(OC)cc1 | 5.9% | 3.4%
Cc1ccc(C2=C(O)C(=O)N(Cc3cccnc3)C2c2cccc(Cl)c2)cc1 (stereo not given) | -4.2% | 10.7%
Cc1ccc(-c2nc3ccc(C(=O)N4CCC(CC(=O)NCCN5CCOCC5)CC4)cc3o2)cc1 | -26.2% | 1.7%
O=C(NCCCOCC1CCCO1)c1cc(=O)c2ccccc2o1 (stereo not given) | 16.7% | 3.1%
Cc1ccc(-c2noc(C3CC(=O)N(c4ccc5c(c4)OCCO5)C3)n2)cc1 (stereo not given) | -8.8% | -12.9%
CC(=O)Nc1ccc(NC(=O)c2csc(NC3CCCC3)n2)cc1 | 0.0% | 2.7%
Cc1ccc2nc(-c3cccc(Cl)c3)cc(C(=O)O)c2c1 | 0.9% | ?
Cc1ccc(-c2csc(C(C#N)=C3CCC(C)CC3)n2)cc1 (stereo not given) | 206.8%[activator] | 29.7%
CC1CCN(c2oc(-c3cccs3)nc2C#N)CC1 | 138.0%[activator] | 94.8%[activator]
CSC1=N/C(=C\c2ccco2)C(=O)S1 | 6.3% | 3.1%
CC(NC(=O)CSc1nnc(COc2ccc(Cl)cc2)n1C)c1ccc2ccccc2c1 (stereo not given) | ? | ?
COc1nc(C(=O)NCC(C)N(C)C)cc2ccccc12 (stereo not given) | -14.3% | -15.1%
CN(C)C(=O)COc1ncnc2c(Cl)cc(Cl)cc12 | 3.8% | -4.9%
Cc1ccc(NC(=O)C23CCC(C)(C(=O)C2)C3(C)C)c(C)c1 (stereo not given) | 15.2% | 0.0%
CCCCN(C)C(=O)Cn1c(C2CC(=O)N(c3cccc(C)c3)C2)nc2ccccc21 (stereo not given) | -0.9% | -1.5%
CC(C)Sc1ccccc1C(=O)NCCC1=CCCCC1 | 18.1% | 70.3%[activator]
O=C(NCCCN1CCN(c2ccc(F)cc2)CC1)c1ccc2nc(CCc3ccccc3)oc2c1 | 8.0% | -11.3%
O=C(NCCSCc1ccsc1)C1CC1 | 20.0% | 4.4%
O=C(NC1CCCC1)C1(c2cccc(C(F)(F)F)c2)CCCC1 | -2.6% | 6.4%
Cc1nc(SC(C)c2ccc(Cl)cc2)sc1CC(N)=O (stereo not given) | 26.4% | -10.5%
CCN(CC)S(=O)(=O)c1cccc(NC(=S)Nc2cc(C)ccc2C)c1 | ? | -20.4%

Not all compounds are listed; count on the stated rates, not on these rows.
